Compound activity from PubChem BioAssay.
Ba CapD inh – blocks the Bacillus anthracis CapD enzyme; 140,000 compounds, 0.23% hits; z-score (no concentration beside the values); purified CapD enzyme, fluorescence intensity read-out; active compounds read low; some hits fall short of the stated cut;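 active = z-score under -4 in either of two replicates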;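 also: stock transfer was 100 nL into about 40 µL; score is relative to mean and spread of the plate; one replicate is shown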
AID504770 – E. coli YBA685 growth inhibition, screen for V. cholerae RctB inhibitors; E. coli YBA685 rctB-dependent plasmid, OD600 growth, 3 h; active compounds read low; z-score (no concentration beside the values); 130,000 compounds, 0.27% hits; AID 504770;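 active = z-score under -2 on both plates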;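 also: wells of about 30 µL received 100 nL stock; score is relative to mean and SD of the test wells; the first replicate is given; strong numbers were not always called active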
The depositor's hits bear a star; i = inactive; / = not tested or not shown.

entry	compound	AID504770	Ba CapD inh
1	CCc1ccc(COC(=O)NCCc2c[nH]c3ccc(O)cc23)cc1	/	0.34
2	Cc1nnc(C)n1/N=C\c1cccnc1	0	0.26
3	CN(C)S(=O)(=O)c1cccc(C(=O)Oc2ccccc2C#N)c1	-1.4	/
4	CCn1c(SCc2nc(N)nc(N3CCCCC3)n2)nc2c1c(=O)n(C)c(=O)n2C	/	0.02
5	CC(=O)C1=NN(c2ccc(C)cc2)C(c2c[nH]c3ccccc23)N1c1ccc(N2CCCCC2)c(Cl)c1 (centres undefined)	/	-0.28
6	Cc1cc(C(=O)NCC(C)c2ccc(Cl)cc2)nn1C (centres undefined)	/	-0.21
7	Cc1cc(C)nc(NN)n1	-0.15	-0.45
8	O=C(COc1cccc(Cl)c1)NC1CCCCC1	-0.8	0.14
9	C=CCOC(=O)C1=C(C)NC(S)=C(C#N)C1c1ccsc1 (centres undefined)	/	-0.76
10	COc1ccc(S(=O)(=O)Nc2ccc3c(c2)CS(=O)(=O)C3)cc1	0.4	-0.42
11	O=C(NCCCn1ccnc1)c1cc(NS(=O)(=O)c2cccs2)cc(NS(=O)(=O)c2cccs2)c1	1.2	/
12	COc1cc(/C=C/C(=O)OCCOc2ccccc2)ccc1O	-0.1	/
13	COc1ccc(C(=O)O)cc1NC(=S)NC(=O)Cc1ccc(Cl)cc1	-0.65	0.14
14	CC(C)(C)c1cc(N=NC(=O)c2ccco2)cc(C(C)(C)C)c1O	-0.45	/
15	Cn1c(O)c(C=Nc2ccc(N3CCOCC3)c(Br)c2)c(=O)n(C)c1=S	1.1	-0.38
16	Cc1onc(-c2ccccc2)c1-c1nc2ccccc2c(=O)o1	0.85	0.09
17	N/C(CCN1CCCCC1)=N\O	-0.35	-0.51
18	O=C(O)Cc1nc2ccc(Cl)cc2[nH]1	-0.7	/
19	CC1=NN(c2ccc(C(=O)NCCc3c[nH]c4ccc(Cl)cc34)cc2)C(=O)C1	/	-1.6
20	CCC(CC)NC(=O)C(C)Oc1ccccc1 (centres undefined)	0.2	-0.23

6 compounds picked at random from those above, as already listed:
entry	compound	AID504770	Ba CapD inh
5	CC(=O)C1=NN(c2ccc(C)cc2)C(c2c[nH]c3ccccc23)N1c1ccc(N2CCCCC2)c(Cl)c1 (centres undefined)	/	-0.28
3	CN(C)S(=O)(=O)c1cccc(C(=O)Oc2ccccc2C#N)c1	-1.4	/
14	CC(C)(C)c1cc(N=NC(=O)c2ccco2)cc(C(C)(C)C)c1O	-0.45	/
18	O=C(O)Cc1nc2ccc(Cl)cc2[nH]1	-0.7	/
7	Cc1cc(C)nc(NN)n1	-0.15	-0.45
6	Cc1cc(C(=O)NCC(C)c2ccc(Cl)cc2)nn1C (centres undefined)	/	-0.21

The listing continues:
entry	compound	AID504770	Ba CapD inh
21	CC1CCCC(C)N1c1nnc(N)s1 (centres undefined)	-0.9	-0.14
22	Cc1ccc(N=C(NOCc2ccc([N+](=O)[O-])cc2)c2nonc2N)cc1	/	-0.61
23	O=C1/C(=C/c2ccc(F)cc2)Cc2ccccc21	/	-1.3
24	CN(C)C(=O)N1CCN(Cc2ccc3c(c2)OCO3)CC1	-0.4	0.27
25	Cc1nc(-c2cccnc2)sc1C(=O)/C=C/Nc1ccc(Cl)cc1	/	-0.77
26	CCCS(=O)(=O)c1c(S(=O)(=O)CCC)c2ccccn2c1C(=O)N/N=C/c1ccc([N+](=O)[O-])cc1	/	-0.045
27	CCOC(=O)c1ccc(N=C2SC(C(=O)Nc3cccc(OCC)c3)CC(=O)N2C)cc1 (centres undefined)	/	-0.3
28	c1ccc(-c2ccc(Oc3ncnc4c3oc3ccccc34)cc2)cc1	1.6	/
29	CCCCC(=O)Nc1ccc(N2CCCC2)cc1	-0.05	-0.41
30	COc1ccc(OC)c(C(=O)c2oc3ccc(OC)cc3c2N)c1	1.7	-0.44
31	CCCC1=C(C(=O)OCc2ccccc2)C2(C(=O)Nc3ccccc32)C(C(=O)OCC)=C(N)O1 (centres undefined)	/	0.4
32	CCOC(=O)N1CCC(NC(=O)CSc2nc3ccccc3n2S(=O)(=O)c2ccc(Br)cc2)CC1	/	-0.32
33	O=C(O)CCS(=O)(=O)c1ccc(Cl)cc1	-0.15	0.34
34	CC(Sc1nnc(Nc2ccc(Oc3ccccc3)cc2)s1)C(=O)NC(C)(C#N)C(C)C (centres undefined)	2	/
35	COc1cc(CNn2cnnc2)ccc1OCC(=O)NC(C)(C)C	0.2	/
36	Cc1nc(-c2ccccc2)sc1C(=O)Nc1ccc(Cl)c(Cl)c1	/	-0.02
37	COc1ccc(C(=O)NNC(=O)OCCc2ccc(C)cc2)cc1	/	-0.24
38	CC(C)(C)c1cc(C(C)(C)C)n(-c2ccc(-n3cccc3)cc2)n1	-0.45	-0.16
39	O=C(Nc1ccccc1N1CCCCC1)c1cc(Cl)sc1Cl	-0.05	-0.32
40	COc1cccc(OCCn2cc(C(=O)c3ccco3)c3ccccc32)c1	0.75	2.1
41	C=CCSc1nc2c(C(=O)OCC)nnn2c2ccccc12	0.25	-0.3
42	Nc1ccccc1SCc1cccc(Cl)c1F	-0.05	0.61
43	CCOC(=O)c1cnc(SC)nc1Nc1ccccc1	0.25	/
44	CC(=O)N1CCN(S(=O)(=O)c2cccc(C(=O)Nc3ccc(N(C)C)cc3)c2)CC1	0.85	/
45	COc1ccc(CC(=O)Nc2ccc(N3CCOCC3)cc2)cc1OC	-0.55	1.2
46	COC(=O)NCc1cccc(CNC(=O)OC)c1	-0.45	0.22
47	Cc1onc(-c2ccccc2Cl)c1C(=O)N1c2ccccc2NC(=O)CC1C (centres undefined)	/	-1.1
48	c1csc(CNc2nc3ccccc3n2CCN2CCCCC2)c1	-0.85	i
49	CCOC(=O)/C(C#N)=C\N1CCc2ccccc2C1	/	-0.33
50	O=S(=O)(NS(=O)(=O)c1ccccc1)c1ccccc1	-0.75	-0.07
51	C=CCOC(=O)c1ccc(NC(C)=O)cc1	-0.3	-0.005
52	Cc1ccc2nc(NC(=O)c3c(O)c4ccccc4n(CCC(C)C)c3=O)sc2c1	/	-1.3
53	O=C1N=C2N(CCN3CCCCC3)c3ccccc3N2/C1=C\c1ccc([N+](=O)[O-])o1	/	0.18
54	NC(=O)COc1ccc(Nc2nnc(-c3ccccc3)c3ccccc23)cc1	-0.4	-1
55	Cc1cccc(NC(=O)c2ccccc2)n1	-0.15	/
56	CCC(C)(C(=O)NC1CCCCC1)N(C)C(=O)c1ccccn1 (centres undefined)	/	0.45
57	CSc1nsc(SCC(=O)NC2=NC(=O)C(C)S2)n1 (centres undefined)	0.1	-0.24
58	Nc1nonc1C(=NCc1ccccc1)NO	-1.1	0.06
59	COC(=O)C1Cc2c([nH]c3ccccc23)C2(CCN(C)CC2)N1 (centres undefined)	/	0.16
60	CCCCn1c(C)c(C(=O)OCC)c2cc(OC)ccc21	0.25	/
61	O=C(O)CCN(C(=O)C1C2C=CC(C2)C1C(=O)O)c1ccccc1 (centres undefined)	-0.45	/
62	O=C(c1ccccc1)c1ncc[nH]1	-0.8	/
63	CC1(c2ccccc2)OC(=O)C2C3CCCCC3=C3CCCCC3C21 (centres undefined)	0.05	-2.6
64	Cc1onc(-c2c(Cl)cccc2Cl)c1NC(=O)O/N=C/c1ccc(Cl)c(Cl)c1	/	-0.41
65	CC(=O)COc1ccc(Cl)cc1Cl	/	0.22
66	C=C[C@H]1CN2CC[C@H]1C[C@@H]2[C@H](O)c1ccnc2ccccc12	-0.15	10
67	CCOc1ccc(N2C(=O)/C(=C\c3ccc(OC)c(O)c3)S(=O)(=O)C2c2cccc([N+](=O)[O-])c2)cc1 (centres undefined)	/	-0.33
68	CC(C(=O)O)N1C(=O)C2CC=CCC2C1=O (centres undefined)	-0.05	1.4
69	O=[N+]([O-])c1ccc(Oc2ccc(OCc3ccccc3)cc2)cc1	/	-0.7
70	CCOc1ccc(NC(=O)CCC(=O)n2nc(C)cc2C)cc1	1.5	0.065
71	CC(=O)N1CCCc2cc(S(=O)(=O)NC(C(=O)NCc3ccccc3)C(C)C)ccc21 (centres undefined)	0.85	-0.18
72	COc1ccc(OC)c(/C=N/NC(=O)c2cn(C)c3ccccc23)c1	1	14
73	c1ccc(-c2ccn(-c3ccccc3)n2)cc1	-0.5	0.035
74	O=c1cccc2n1CC1CC2CN(CC(O)c2ccc3[nH]ccc3c2)C1 (centres undefined)	0.65	6.5
75	CC(C)(C)c1cc2c(c(C(C)(C)C)c1)Oc1cc(C#N)c(C#N)cc1O2	-0.35	0.18
76	O=C(O)CC(CC(=O)Nc1ccc2ccccc2n1)c1ccccc1 (centres undefined)	0.7	0.54
77	O=C(COC(=O)C1CCN(c2ccc(C(F)(F)F)cn2)CC1)c1ccccc1	1.2	/
78	Cc1ccc(CN(C)C(=O)COc2ccccc2-c2ccccc2)o1	-0.3	/
79	O=c1[nH]c(NCCCO)nc2c1C1(CCCCC1)Cc1ccccc1-2	/	41
80	O=C1c2ccccc2C(=O)N1CC1c2ccccc2CCN1C(=O)CCN1C(=O)C2C3C=CC(C3)C2C1=O (centres undefined)	/	-0.12

Among those listed so far, these contain fluorine.
entry	compound	AID504770	Ba CapD inh
23	O=C1/C(=C/c2ccc(F)cc2)Cc2ccccc21	/	-1.3
42	Nc1ccccc1SCc1cccc(Cl)c1F	-0.05	0.61
77	O=C(COC(=O)C1CCN(c2ccc(C(F)(F)F)cn2)CC1)c1ccccc1	1.2	/

Continued:
entry	compound	AID504770	Ba CapD inh
81	CCc1ccc(NC(=O)N2CCSc3ncccc32)cc1	-0.25	-1.1
82	N#Cc1c(-c2ccc(Cl)cc2)nc2n(c1=O)CCCS2	-1.4	0.84
83	C=CCN1CC(C(=O)O)CC1=O (centres undefined)	1.2	0.72
84	CC(=O)NCCCc1nc2ccccc2n1C(C)C	-0.05	0.31
85	COc1ccc(C2Oc3ccc(Cl)cc3C3CC(c4cccc(OC)c4)=NN32)cc1 (centres undefined)	/	-0.73
86	CC(=O)N1C(=Nc2ccccc2C)SCC1(C)C	1.7	/
87	CC1(C)CC(=O)CC(O)(C(F)(F)F)O1 (centres undefined)	0.4	0.2
88	Cc1ccc(C2=NNC(=O)C(P(=O)(c3ccccc3)c3ccccc3)C2)cc1 (centres undefined)	-0.85	30
89	CC(=O)n1c(=O)oc2ccccc21	0.2	-1.8
90	COc1ccc(S(=O)(=O)Nc2nc3ccccc3nc2NCC2CCCO2)cc1 (centres undefined)	-0.7	/
91	CCOC(=O)c1sc2ncnc(NCCCN3CCOCC3)c2c1C	/	66
92	C=CCNCc1ccc(OC)c(OC)c1	1.2	-0.19
93	CC(=O)c1cccc(N2C(=O)C3C4c5ccccc5C(c5ccccc54)C3C2=O)c1 (centres undefined)	/	0.19
94	CCCCC1(C)OC(=O)C(=Cc2ccc3c(c2)OCO3)C(=O)O1 (centres undefined)	-0.6	0.88
95	Cc1c(Cl)cccc1NC(=O)C(CC(=O)O)C1CCCO1 (centres undefined)	0	/
96	O=S(=O)(c1ccc(S(=O)(=O)N(Cc2cccs2)C2CCCCC2)cc1)N1CCCC1	2	/
97	COc1ccc(C(=O)NCc2nnc(SCC(=O)Nc3cc(C)cc(C)c3)o2)cc1OC	-0.25	0.03
98	O=C(NCc1ccccn1)c1ccc2ccccc2n1	0.45	1.5
99	O=S1(=O)c2cccc3cccc(c23)N1Cc1nnc(-c2ccccc2Br)o1	1.5	/
100	CN(CC(=O)Nc1ccc(Cl)cc1)C1CCCCN(C(=O)c2ccc(F)cc2)C1=O (centres undefined)	0.4	/
101	CN1C(=O)C(=Cc2cn(Cc3ccccc3C#N)c3ccccc23)C(=O)N(C)C1=O	/	-0.01
102	O=C(OCCc1ccc(Cl)cc1Cl)N1CCN(c2ccccc2F)CC1	/	0.9
103	O=C1C2CCCC1C(c1ccccc1)NC2c1ccccc1 (centres undefined)	-0.6	-0.28
104	Cc1ccc(-c2onc3ccc(Cl)cc23)cc1	0	-0.2
105	CCOc1ccc(N2C(=O)C(C)SC23C(=O)N(CN2CCOCC2)c2ccccc23)cc1 (centres undefined)	/	-0.17
106	CCCc1cc(C(=O)OC)c(NC(=O)C2CCC2)s1	-0.5	3.7
107	CN(C)C(=O)COC(=O)c1cccc(C#N)c1	-1.4	/
108	CN(Cc1nnc(-c2ccc3ccccc3c2)o1)c1nnc(C(F)(F)F)s1	-0.4	0.66
109	Cc1cccc(C(=O)NCc2cn3cccc(C)c3n2)c1	-0.75	/
110	CN(C)C(=O)Oc1ccnc(SCc2c(Cl)cccc2Cl)n1	1.1	0.61
111	CC(=O)OC1CCC2(C)C3CCC4(C)C(OC(C)=O)CCC4C3CC(O)C2(O)C1 (centres undefined)	-0.05	-0.15
112	C/C(N)=C(/C#N)C(=O)CSc1nnc(SCc2ccc(Cl)cc2)s1	1.9	/
113	O=C(NCc1cc(F)cc(C(F)(F)F)c1)c1ccsc1	/	0.27
114	CC(=O)Oc1ccc2occ(-c3ccccc3)c2c1	-0.5	0.1
115	CCOC(=O)c1c(NC(=O)CSc2nnc(CNC(=O)COc3ccc(Cl)cc3)n2C)sc2c1CCCCC2	/	0.29
116	COc1ccc(/C=N/n2c(N(C(C)=O)C(C)=O)nc(-c3ccccc3)c2-c2ccccc2)cc1	/	-1.4
117	Cn1nc(-c2ccccc2)c(-c2nc3ccccc3n2C)c1-c1ccccc1	1.8	/
118	Cc1cc(C(=O)COC(=O)CSc2ncnc3sccc23)c(C)n1-c1ccc2c(c1)OCO2	0.65	/
119	Cc1cc(C(=O)NCc2cc3ccccc3s2)nn1C	2.3	-0.42
120	Clc1cccc(Cl)c1NC1=NCCS1	-0.9	-0.22
121	COc1ccc(Oc2nc3ccccc3cc2-c2ccc(Cl)cc2)cc1	/	0.53
122	O=C(NCc1ccco1)c1c(-c2ccccc2)c(-c2ccccc2)n[nH]c1=O	-0.1	-0.23
